PrP UTR inh: inhibition of PrP 5' UTR reporter expression | inhibition, % (concentration not given with the values) | AID 488862 | 340,000 tested, 0.35% active | cell-based PrP 5' UTR mRNA reporter, plate reader;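 active means every replicate at 50% or more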;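 further: 0 = median of the neutral control wells; tested in H4 reporter cells; numbers are from one replicate; inactives centre near -14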
Bead autofluor: counter-screen for toxin protease inhibitors: compound fluorescence | compound autofluorescence counterscreen, microsphere flow cytometry; hits give high values | fluorescence intensity (concentration not given with the values) | 360,000 tested, 3.1% active | AID 624483;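 active means at least 3 SD above the mean of all compounds, about 16000 in these data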;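 further: 100 nL of 1 mM stock went into each well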
Sa ugtP lethal: growth inhibition of S. aureus ugtP deletion strain; growth inhibition, % (concentration not given with the values); 330,000 tested, 0.54% active; S. aureus RN4220 ugtP deletion, OD600 growth, 16 h; some inactives read as strong as hits; AID 1259309;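 active means z-score under -3 and OD600 up to 0.15 on both plates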;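 further: plate controls were untreated wells for no effect and antibiotic for full effect; wells of about 80 µL received 100 nL stock; the first replicate is given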
BJeLR viability: BJeLR cell viability loss; BJeLR (HRASV12) viability, CellTiter-Glo ATP luminescence, 48 h; reference of the scale not given here; inhibition, % (test concentration not listed); 300,000 tested, 0.17% active; AID 1554;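 active means replicate mean above 50%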;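 further: 50 nL library stock added to about 25 µL; numbers are from one replicate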
Sa RN4220 lethal: kills Staphylococcus aureus RN4220. S. aureus RN4220 growth, OD600, 16 h. inhibition, % (no concentration beside the values). 330,000 tested, 0.33% active;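 active means z-score of -3 or lower and OD600 up to 0.18 on both plates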;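 further: plate controls were untreated cells for no effect and reference antibiotic for full effect; stock transfer was 100 nL into about 80 µL; one replicate is shown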
Mtb hypoxia inh: Mtb hypoxia fluorescent reporter inhibition; M. tuberculosis hypoxia-regulated fluorescent reporter, fluorescence; fluorescence inhibition, % (no concentration beside the values); 300,000 tested, 0.1% active;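 active means 35 to 45% if threefold the growth effect, above 45% if 1.5-fold the growth effect; inactive means the rest, general growth blockers included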;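 further: wells of about 50 µL received 100 nL stock; 0% = vehicle wells and 100% = reference inhibitor wells; whole bacteria with a GFP reporter of the hypoxia response; strong numbers were not always called active; many hits fall short of the cut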
Mtb hypoxia inh growth: also measured in Mtb hypoxia inh; calls as there; growth inhibition, %; measured here: M. tuberculosis growth (absorbance);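 0% = vehicle and 100% = reference antibiotic; read after six days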
* marks the source's active call; other numbers are inactive results; / = not tested or not shown. Outcome played no part in choosing rows. Share with any hit: about 4.1%.

Results follow in this order: Mtb hypoxia inh growth, PrP UTR inh, Sa ugtP lethal, BJeLR viability, Sa RN4220 lethal, Mtb hypoxia inh, Bead autofluor
COC(=O)c1ccccc1S(=O)(=O)N1CCC(C(=O)NC2CCCCC2C)CC1 (configuration not stated)
  5, -13, 4, /, 1.3, 14, /
COc1ccc(S(=O)(=O)N2CCCCC2C)cc1 (configuration not stated)
  4, -18, 3, 0, 8.2, 0, 3486
CNC(=O)c1ccc(-c2sc3nc(N4CCOCC4)c4c(c3c2N)CCCC4)o1
  8, -15, -19, -21, 10, 8, 5948
O=C(NN=Cc1ccc(-c2ccccc2C(=O)O)o1)c1cccs1
  6, /, 5, /, 2.3, 11, /
COc1ccc2nc(N(CCN(C)C)C(=O)c3ccc4ccccc4c3)sc2c1
  -2, -11, -9, 0, -3.5, -8, 5574
C=CCNC(=O)C(=O)NCC1CCCN1CC (configuration not stated)
  4, -18, 7, 6, 7.5, 10, 4312
COc1ccccc1OCCCCOc1ccccc1F
  8, -16, 30, -9, 7.7, 9, 5999
Cc1ccc(NC(=O)CCN2C(=O)c3ccccc3C2=O)cc1
  -3, -1, 0, 21, -2.3, -1, 3335
Cc1c(-c2ccccc2)nc2ccccc2c1C(=O)OCC(=O)Nc1ncc(C(F)(F)F)cc1Cl
  1, -12, -17, -1, -2.3, 4, 1969
CCOc1ccccc1N(C(=O)Nc1ccc(Cl)cc1)C1=NC(C)CS1 (configuration not stated)
  -16, -2, -8, -5, 7.1, -7, 2391
Cc1nnc(NC(=O)CSC2CCCCC2)s1
  6, 0, -5, 7, -14, 6, 5852
CCN(CC)S(=O)(=O)c1ccc(NC(=O)C(C)N(c2ccccc2)S(C)(=O)=O)cc1 (configuration not stated)
  /, 8, 7, -4, 1.4, /, 4577
COc1ccc(/C=C2\OC(=S)N(C)C2=O)cc1
  3, -14, -3, -9, 9.7, 3, 6502
COc1ccc(NC(=O)CN(C)C(=O)CSc2ccc(Br)cc2)cc1
  -4, -18, 1, /, -1.0, -3, 3709
COC(=O)C(C)n1cnc2c(nnn2-c2ccc(OC)cc2)c1=O (configuration not stated)
  0, -56, -3, -2, 7.3, -1, 10850
CN(C)c1nc(Cl)cc(N2CCOCC2)n1
  -2, -16, -1, 3, 1.7, 1, 22938*
CN(C)C(=S)Oc1ccccc1-c1ccccc1OC(=S)N(C)C
  9, 1, -6, 3, 4.3, 3, 3560
CC(C)Cn1c(-c2csc(C(C)C)c2)n[nH]c1=S
  7, -20, -10, -1, -1.2, 0, 4340
CC(=O)c1c(N2CCOCC2)nc2ccc(Br)cc2c1-c1ccccc1
  8, -20, 85*, 0, -7.3, 14, 3443
Cc1cc(S(=O)(=O)Nc2ccc(C(=O)NCC3(N(C)C)CCCCC3)cc2)ccc1F
  8, -12, 12, 6, 3.9, 7, /
COc1ccccc1N(CC(=O)NCc1ccccc1)C(=O)CCC(=O)Nc1cc(C)ccn1
  /, -15, 2, 0, 0.7, /, 4330
O=C(NC1CC1)C1=C[C@H](C2CCCCC2)C[C@H](OCc2ccc(CO)cc2)O1
  /, -9, /, 2, /, /, 3064
CCOC(=O)C1(Cc2cccc(Cl)c2)CCCN(C(=O)CCC(=O)N(C)C)C1 (configuration not stated)
  6, -7, 0, -1, 3.5, 13, 2108
Cc1ccc(NC(=O)CSc2nnc(-c3ccccc3Br)o2)cc1C
  /, -29, 13, -3, 4.1, /, 2634
COc1ccc(S(=O)(=O)NCC2CCCN(C(=O)c3sccc3C)C2)cc1 (configuration not stated)
  7, -7, -8, 3, 12, 15, 3751
COc1ccnc(Oc2ccccc2)c1C(=O)N/C=N/OCc1ccccc1
  -7, -8, 13, -4, 10, 1, 2188
CCN(C[C@H]1N[C@@](C)(C(=O)OC)[C@H]2C(=O)N(C)C(=O)[C@@H]12)S(=O)(=O)c1ccccc1
  11, -3, 0, /, 3.4, -5, 3882
CCC1CCCCN1C(=O)CNCC1CCCO1 (configuration not stated)
  7, -13, 7, 7, 4.8, 1, 5362
CN(C)N=Nc1nc2c(c(=O)n(C)c(=O)n2C)n1C
  -1, /, 3, 2, 2.6, -4, 5722
O=S(=O)(Cc1ccccc1)NCCc1ccc(F)cc1
  14, -15, 9, -11, -0.6, 8, 4062
COc1ccc(CN2CCNC(=O)C2CC(=O)N(C)Cc2cc(C)no2)cc1OC (configuration not stated)
  10, -9, -1, 0, 1.8, 10, 5851
CC(=O)c1c(C)nc(-c2ccccc2)n1O
  -6, -11, 7, -6, 3.8, -3, 15492
Cc1ccc(C(NC(=O)C(C)C)c2cc([N+](=O)[O-])c3cccnc3c2O)cc1 (configuration not stated)
  8, -11, 95*, -9, 92*, 6, 2336
Cc1ccc(NC(=O)Cn2c(=O)oc3cc(S(=O)(=O)N4CCC(C)CC4)ccc32)cc1C
  8, -6, 15, 7, 1.0, 6, 5636
O=C(CSc1nnc(CNC(=O)c2cccs2)o1)NC1CCCC1
  /, -9, 10, 3, -2.8, /, 3415
Cc1ccc(NC(=S)N(CCCN2CCN(C)CC2)Cc2cccs2)cc1C
  0, -29, 7, 4, 17, -4, 4755
O=C(c1ccccc1[N+](=O)[O-])N1CCC2(CC1)OCCO2
  -4, -24, 9, -5, 0.9, 7, 3156
COc1ccc2[nH]cc(C(=O)CNc3nc(C)cs3)c2c1
  /, -16, 3, 1, 2.4, /, 2716
O=C(NCC1CC1)c1onc(CSc2nc3ccccc3[nH]2)c1C(=O)NCC1CC1
  18, -21, 3, 4, -7.7, 8, 3428
CC(C)(C)OC(=O)NN=Cc1cccn1-c1ccc([N+](=O)[O-])cc1
  5, /, 0, /, 3.4, 14, /
CCC(Oc1ccccc1)C(=O)NCCCN1CCOCC1 (configuration not stated)
  1, -10, 2, -5, 3.2, 13, 6592
CCOc1ccc(C=C2SC(=S)N(C(C(=O)O)c3ccccc3)C2=O)cc1OCC (configuration not stated)
  4, /, -6, /, 14, -3, /
CCN(CC)CC(=O)NCc1cc(-c2ccc(OC)cc2)no1
  /, -103, 11, 1, 6.1, /, 2160
Cc1ccccc1OCCn1cc(C(=S)N2CCN(C)CC2)c2ccccc21
  13, -29, 9, 0, 6.5, 6, 4180
CC(C)c1ccc(NC(=O)CSC(C)c2nc3ccccc3c(=O)[nH]2)cc1 (configuration not stated)
  7, -17, 8, 2, -0.9, -10, 4182

Just Sa ugtP lethal and Bead autofluor (2 entries from above):
molecule	Sa ugtP lethal	Bead autofluor
COc1ccc2nc(N(CCN(C)C)C(=O)c3ccc4ccccc4c3)sc2c1	-9	5574
Cc1ccc(NC(=O)CCN2C(=O)c3ccccc3C2=O)cc1	0	3335

Remaining list, next part.
Results follow in this order: Mtb hypoxia inh growth, PrP UTR inh, Sa ugtP lethal, BJeLR viability, Sa RN4220 lethal, Mtb hypoxia inh, Bead autofluor
OCCNc1nc(Nc2cc(Cl)ccc2OC2CCCC2)nc(N2CCCC2)n1
  -3, -21, -2, -5, -4.3, 2, 3511
COc1ccc(C(=O)NCCS(=O)(=O)N2CCN(C(=O)c3ccco3)CC2)cc1
  3, -7, 3, -11, 4.7, 5, /
O=C(NCc1ccc2c(c1)OCO2)Nc1ccc([N+](=O)[O-])cc1
  0, -7, -9, 17, -1.7, 2, 5271
CCOC(=O)CCc1c(C)nc2ncnn2c1C
  2, 6, -2, 2, -0.3, -2, 23382*
O=C(CCc1nc2ccccc2c(=O)[nH]1)Nc1ccc(F)c([N+](=O)[O-])c1
  -3, -25, 0, -4, 1.0, 7, 4388
Cc1cc(C)c2c(c1)/C(=C/C(=O)c1ccc(Br)s1)C(=O)N2
  7, -31, 3, -6, 22, -2, 21983*
Cc1ccc(NC(=O)CCNS(=O)(=O)c2ccc3[nH]c(=O)oc3c2)c(Cl)c1
  8, -15, -5, -10, 1.5, 10, 5607
COc1cc(S(=O)(=O)N(Cc2ccccn2)Cc2ccco2)ccc1-n1cnnn1
  0, -3, 0, -10, 6.2, -3, 8136
O=C(Cn1cc(C(F)(F)F)ccc1=O)N/N=C/c1ccc(Cl)cc1
  /, -17, /, 6, /, /, 2239
Cc1cc(C)c2c(c1)NP(=S)(c1ccccc1)N2 (configuration not stated)
  7, -17, -4, /, 0.4, 4, 3506
COc1ccccc1N1CCN(C(=O)C(Cc2ccccc2)NC(=O)C2CCCCC2)CC1 (configuration not stated)
  13, -11, -3, -2, 3.3, 6, 25307*
CC(C)CC(c1nnnn1Cc1ccco1)N1CCN(c2cccc(Cl)c2)CC1 (configuration not stated)
  /, -8, 6, 2, -3.7, /, 3776
CCN(C(=O)COC(=O)CCC(=O)c1ccccc1)c1c(N)n(Cc2ccccc2)c(=O)[nH]c1=O
  -2, -1, 3, /, 3.2, -7, 8812
CC1CCCN1c1ccnc2cc(Cl)ccc12 (configuration not stated)
  /, /, -3, /, -2.9, /, 3028
Cc1cc(NC(=O)c2ccc(N(C)S(=O)(=O)c3ccccc3)cc2)no1
  10, 5, -3, -1, -0.5, -7, 10888

Some of the entries so far, as labelled records.
SMILES: COC(=O)C(C)n1cnc2c(nnn2-c2ccc(OC)cc2)c1=O (configuration not stated)
  Mtb hypoxia inh growth: 0
  PrP UTR inh: -56
  Sa ugtP lethal: -3
  BJeLR viability: -2
  Sa RN4220 lethal: 7.3
  Mtb hypoxia inh: -1
  Bead autofluor: 10850

SMILES: C=CCNC(=O)C(=O)NCC1CCCN1CC (configuration not stated)
  Mtb hypoxia inh growth: 4
  PrP UTR inh: -18
  Sa ugtP lethal: 7
  BJeLR viability: 6
  Sa RN4220 lethal: 7.5
  Mtb hypoxia inh: 10
  Bead autofluor: 4312

Next structures follow:
Results follow in this order: Mtb hypoxia inh growth, PrP UTR inh, Sa ugtP lethal, BJeLR viability, Sa RN4220 lethal, Mtb hypoxia inh, Bead autofluor
COc1cccc(Sc2ccccc2CN(C)C)c1
  /, -9, 4, -2, 2.5, /, 2840
O=C1c2ccccc2NC(c2ccccn2)N1NS(=O)(=O)c1ccccc1 (configuration not stated)
  -2, -11, 1, 6, 1.0, -2, 1893
COc1ccc(OCCn2cc(/C=N/NC(=O)c3ccncc3)c3ccccc32)cc1
  /, -13, /, 3, /, /, 2002
CCOC(=O)N1CCC(NC(=O)CCCN2C(=O)CSc3ncccc32)CC1
  7, -12, -2, 4, 1.5, 7, 3014
CCOc1ccc(C=Nn2nnnc2N)cc1O
  -5, /, -1, /, 2.8, 8, /
CC(C)=C1C2C=CC1C(C(=O)Nc1cc(C)ccc1C)C2C(=O)O (configuration not stated)
  /, -5, 11, 4, 9.4, /, 2368
COc1ccccc1CC(=O)NCc1csc(-c2cccs2)n1
  5, /, -3, -3, -1.2, 2, 4420
C=CC[C@H](CC(=O)NCCO)C(=O)N[C@@H](C)COC(=O)[C@H](CC=C)CC(=O)OC(C)(C)C
  -6, -19, 1, /, -1.5, -8, 3861
COc1ccc(C(=O)Cn2c(Cl)nc3c2c(=O)n(C)c(=O)n3C)cc1
  0, 3, 5, 2, 0.6, 10, /
Cc1cc(C)cc(NC(=O)CSc2nnc(-c3ccccc3C)o2)c1
  7, -21, -21, 6, -1.1, 1, 19314*
COC(=O)[C@H](CCSC)NC(=O)Nc1ccc(C)cc1C
  5, -44, -2, -1, 2.1, 2, 8708
Cc1cc(/C=C2/C(=O)NC(=O)N(Cc3ccco3)C2=O)c(C)n1-c1ccc(C(=O)O)cc1
  11, -23, -1, -5, 8.8, -3, 4831
Cc1ccc(/C=C/C(=O)O)cc1S(=O)(=O)NCc1cccnc1
  -10, -23, 1, 2, -1.7, -9, 6010

Screening data (PubChem)
